Assay outcomes as filed in PubChem BioAssay.
YopH PTP inh: inhibitors of Yersinia enterocolitica YopH tyrosine phosphatase; fluorescence Ex485/Em525; inhibition, %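 (about 10 µM by stock and volumes)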; hit rate 0.16% among 140,000; AID 898;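 active = inhibition of 50% or more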;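 also: controls were vehicle for no effect and minimum signal wells for full effect; inactives centre near -20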
RecA intein inh: Mtb RecA intein splicing inhibition | P9WHJ3 | cell-free RecA intein splicing, fluorescence | inhibition, %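 (about 9 µM by stock and volumes)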 | hit rate 0.75% among 290,000 | AID 2221; in the data active = inhibition above about 30%; inconclusive = no clear call, values can overlap the other calls;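 also: 0% = vehicle wells and 100% = reference inhibitor control wells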
Target sequence (P9WHJ3 whole entry, looked up): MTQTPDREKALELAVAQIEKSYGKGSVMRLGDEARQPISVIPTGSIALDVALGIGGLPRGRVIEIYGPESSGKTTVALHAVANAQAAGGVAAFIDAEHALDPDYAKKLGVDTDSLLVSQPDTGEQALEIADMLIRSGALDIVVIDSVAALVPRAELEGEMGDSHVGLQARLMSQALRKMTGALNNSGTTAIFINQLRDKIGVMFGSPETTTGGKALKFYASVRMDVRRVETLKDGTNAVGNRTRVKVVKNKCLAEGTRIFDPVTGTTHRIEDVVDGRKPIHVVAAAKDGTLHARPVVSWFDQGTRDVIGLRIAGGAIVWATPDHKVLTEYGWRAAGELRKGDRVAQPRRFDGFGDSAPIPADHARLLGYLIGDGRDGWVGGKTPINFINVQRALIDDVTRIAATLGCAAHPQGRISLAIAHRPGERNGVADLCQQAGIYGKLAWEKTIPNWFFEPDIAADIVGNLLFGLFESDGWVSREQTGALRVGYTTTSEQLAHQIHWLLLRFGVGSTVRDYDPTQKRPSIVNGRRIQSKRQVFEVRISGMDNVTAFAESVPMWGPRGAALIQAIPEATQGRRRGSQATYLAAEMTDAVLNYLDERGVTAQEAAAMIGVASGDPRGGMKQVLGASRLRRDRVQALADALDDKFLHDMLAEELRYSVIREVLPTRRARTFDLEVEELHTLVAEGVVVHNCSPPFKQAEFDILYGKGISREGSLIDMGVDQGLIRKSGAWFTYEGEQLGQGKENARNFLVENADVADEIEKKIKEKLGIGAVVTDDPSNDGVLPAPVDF
Mtb betalactam: beta-lactam sensitization of Mtb H37Rv. M. tuberculosis H37Rv growth with meropenem, percent inhibition; hits of this screen are not shown here. inhibition, % at 25 µM. hit rate 0.27% among 330,000;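 active = about 74% or more and at least 40 points above the plate without the antibiotic, then above 30% in a dose series; inconclusive = first-round hits that could not be retested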;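 also: growth measured after seven days incubation then overnight dye step; 0% = bacteria only wells and 100% = bacteria with antibiotic; twin plates without the antibiotic show which effects depend on it; some results filed as inactive read as strong as hits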
Arbovirus inh: arbovirus infection inhibition | arbovirus infection cell-based antiviral screen | inhibition, % at 10 µM | hit rate 0.37% among 200,000 | AID 1251;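 active = inhibition from about 30%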;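 also: bluetongue infection of BSR cells; cell survival read as ATP light after 72 h; 0% = infected wells without compound and 100% = uninfected wells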
Mtb H37Rv: M. tuberculosis H37Rv growth inhibitors, H37Rv strain (AID 1626). hit rate 0.95% among 220,000. inhibition, % at 10 µM; hits with a dose series show IC50 in µM. M. tuberculosis H37Rv growth inhibition; higher % means a stronger effect;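 active = confirmed in a dose series; inconclusive = inhibition above 80% but not taken into the dose series; inactive = below 80% or under 30% at every dose of the series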;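 also: bacteria incubated seven days before Alamar blue readout; 0% = bacteria only wells and 100% = bacteria with antibiotic wells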
Arbovirus inh repeat: recorded beside Arbovirus inh, whose call it bears; inhibition, %; measured here: 10K subset replicate screen; many hits read low in the repeat;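 first of two repeat runs on a subset; 0% = infected and 100% = uninfected wells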
Starred values were filed as active, the others as inactive; ? = inconclusive; / = not tested or not shown. Only part of the results is shown. The share of hits here may be higher or lower than overall.

SMILES	YopH PTP inh	RecA intein inh	Mtb betalactam	Arbovirus inh	Mtb H37Rv	others
CC(c1ccccc1)C1CC(=O)N(c2ccc(C(=O)O)cc2)C1=O (stereo unspecified)	-23	-0.7	-5	13	-8%
COc1ccc(Cl)cc1NC(=O)CSc1nnc(C2CC2)n1C	/	-0.6	8	/	/
O=C1NC(c2ccc(Br)cc2)Nc2sc3c(c21)CCC3 (stereo unspecified)	2	-1.4	/	7	3%
Fc1ccc(CNCc2ccccc2Cl)cc1	/	1.4	-3	18	3%
CCOC(=O)N1CCN(C(=O)C(=O)Nc2sc3c(c2C(N)=O)CC(C)(C)OC3)CC1	/	1.5	0	/	/
Cc1ccc(-n2c(N)cc(=O)nc2SCC(=O)N2CCN(c3ccccc3)CC2)cc1	/	0.8	-1	/	/
CC(Sc1nnc(-c2cccnc2)n1-c1ccccc1)C(=O)NCc1ccc2c(c1)OCO2 (stereo unspecified)	-16	0.2	0	-2	-5%
COc1ccc(C(C)C)cc1S(=O)(=O)N1CCN(C)CC1	-20	0.0	-3	6	-5%
O=C(/C=C/c1cccs1)N1CCC2(CC1)Oc1ccc(Cl)cc1C(=O)C21CC(c2cccnc2)=NO1 (stereo unspecified)	/	-1.6	88	/	30%
CCOc1cccc(C(=O)N2CCCCC2c2cccnc2)c1 (stereo unspecified)	8	1.0	-11	-1	-3%	Arbovirus inh repeat=1
COc1ccc(NC(=O)CSc2nc(N)c3cc4c(nc3n2)CC(C)(C)OC4)cc1	/	0.8	0	/	-3%
CCOC(OCC)c1cn(Cc2ccc3c(c2)C(=O)c2ccccc2C3=O)nn1	/	3.7	97	/	/
CC(=O)Nc1ccccc1NC(=O)c1cc(C)cc(C)c1	/	2.0	-10	-5	-3%
CN(C)CCC(=O)NCC1OCCc2ccccc21 (stereo unspecified)	-19	1.0	6	9	-10%
Cc1cc(C)c(NC(=O)c2ccoc2C)c(C)c1	-24	-0.6	0	6	-5%
COc1ccccc1CNC(=O)C(C)NS(=O)(=O)c1ccc(Br)cc1 (stereo unspecified)	-18	-0.3	-1	-1	-6%
CCC(C)(C(=O)NC1CCCC1)N(Cc1ccco1)C(=O)c1ccc2c(c1)OCO2 (stereo unspecified)	-34	0.0	-12	12	3%
O=C(Cn1cc2c(n1)CCCC2)N1CCCc2ccccc21	-20	2.4	11	2	4%	Arbovirus inh repeat=1
N#Cc1c(NC(=O)CN2CCOCC2)oc(-c2ccccc2)c1-c1ccccc1	1	7.3	24	-2	1%
O=C(CCCSc1nc2ccccc2[nH]1)Nc1nnc(-c2ccccc2)o1	-35	-1.2	-28	11	-2%
CCOc1ccc(NC(=O)COc2ccc(OC)cc2)cc1	/	1.2	98	-3	?
CCc1ccc(C2N(c3ccc(OC)cc3)C(=O)C3CCCN32)cc1 (stereo unspecified)	-44	0.0	-11	4	-11%	Arbovirus inh repeat=6
COC(=O)c1cc(NC(=O)c2cccc([N+](=O)[O-])c2C)ccc1Cl	/	/	2	2	5%
COc1ccc(-c2cc(C(=O)N3CCc4ccccc4C3)no2)cc1OC	-12	-1.3	30	-7	1%
Cc1ccc(S(=O)(=O)NCCNC(=O)c2ccccc2)cc1	-10	0.4	-15	-3	1%

Arranged by SMILES length (rising): some entries from above
SMILES	YopH PTP inh	RecA intein inh	Mtb betalactam	Arbovirus inh	Mtb H37Rv	others
O=C(Cn1cc2c(n1)CCCC2)N1CCCc2ccccc21	-20	2.4	11	2	4%	Arbovirus inh repeat=1
CCc1ccc(C2N(c3ccc(OC)cc3)C(=O)C3CCCN32)cc1 (stereo unspecified)	-44	0.0	-11	4	-11%	Arbovirus inh repeat=6
CCC(C)(C(=O)NC1CCCC1)N(Cc1ccco1)C(=O)c1ccc2c(c1)OCO2 (stereo unspecified)	-34	0.0	-12	12	3%

More entries
SMILES	YopH PTP inh	RecA intein inh	Mtb betalactam	Arbovirus inh	Mtb H37Rv	others
CCOc1ccccc1OCCCCOc1ccccc1F	-23	6.4	-2	-3	11%
CC(=O)Nc1ccc(NC(=O)c2ccc(COc3ccc(C)cc3)o2)cc1	/	-1.7	1	/	/
O=C(NCC(=O)N1CCCC(C(F)(F)F)C1)c1ccccc1F (stereo unspecified)	/	-0.8	-11	/	/
CCN(CC)CCNC(=O)c1ccc(NC(=O)/C=C/c2cc(OC)c(OC)c(OC)c2)cc1	/	-2.4	7	-12	3%
O=C1c2ccccc2C(=O)N1CCn1c(=O)oc2ccccc21	-23	1.9	0	-6	-2%
CCOC(=O)C1=Nc2ccccc2C1=[N+]=[N-]	-37	1.2	100	45*	0.91µM*
O=C(Nc1ccnn1C1CCN(C/C=C/c2ccccc2)CC1)c1ccccc1	/	0.5	?	/	/
CCOC(=O)N1CCC(N2Cc3cccc(C(=O)Nc4ccc(S(=O)(=O)N(CC)CC)cc4)c3C2=O)CC1	/	1.2	9	/	/
CCOc1ccc(S(=O)(=O)NCCC(=O)Nc2ncccc2C)cc1	/	2.3	-5	/	/
CCOC(=O)C1CCCN(C(=O)Nc2cccc(Cl)c2)C1 (stereo unspecified)	-23	0.9	4	-2	-6%
CCC(C)C(NC(=O)CCC(=O)OCC(=O)[C@@]1(O)CCC2[C@@H]3CCC4=CC(=O)C=C[C@]4(C)C3[C@@H](O)C[C@@]21C)C(=O)O (stereo partly specified)	/	-1.6	1	/	/
Cc1ccc(Nc2nc(-c3sc(C)nc3C)cs2)cc1	/	2.2	76	/	/
C[C@H](NC(=O)c1nc[nH]c1C(=O)N[C@@H](Cc1ccccc1)C(=O)OCc1ccccc1)C(=O)OC(C)(C)C	/	1.9	1	/	/
CCCn1nc(C(=O)Oc2ccc3c(C)cc(=O)oc3c2)c2ccccc2c1=O	-3	-4.8	-2	4	?
Cc1cc(C)nc(N(C#N)CCOc2ccccc2)n1	-34	1.6	-5	10	2%
COc1ccc(/C=C2\SC(=S)N(CCC(=O)Nc3cccc(C(=O)O)c3)C2=O)cc1	/	18	14	/	/
Cc1c(Cc2c(C)n(C)n(-c3ccccc3)c2=O)c(=O)n(-c2ccccc2)n1C	-22	-0.9	-1	3	3%
CCOC(=O)CNC(=O)c1ccc2[nH]c3c(c2c1)CCCC3	-24	/	10	4	1%
O=C(CSc1nnc(C2CC2)n1-c1ccccc1)NCCc1ccc(F)cc1	-16	-1.2	-15	13	-1%
Cn1cc(CCNC(=O)CCc2nnc(CCCCc3ccccc3)o2)cn1	/	-4.1	-4	5	-5%
COc1ccc(C(=O)Nc2ccc(S(=O)(=O)NC(C)C)cc2)cc1	-24	-3.7	7	0	-14%
O=C(Cn1nnc(-c2ccc(CN3CCOCC3)cc2)n1)N1CCCc2ccccc21	-5	-0.5	11	-5	-5%
O=C(C1CCCN(S(=O)(=O)c2cccc3nsnc23)C1)N1CCc2ccccc21 (stereo unspecified)	-40	5.2	-8	6	/
CCOC(=O)C1(CCc2ccccc2)CCN(C(=O)c2occc2C)CC1	/	8.4	5	17	5%
CCCC(=O)Nc1ccc(S(=O)(=O)Nc2cc(OC)nc(OC)n2)cc1	/	-3.2	5	/	/
The list goes on.
SMILES	YopH PTP inh	RecA intein inh	Mtb betalactam	Arbovirus inh	Mtb H37Rv	others
CCCCN(CC)C(=O)c1cc2cc3ccc(OC)cc3nc2o1	-30	1.3	77	-19	0%
N#Cc1c(SCC(=O)Nc2ccccc2C(F)(F)F)sc2c(O)cc(=O)[nH]c12	/	2.0	-3	/	/
Cc1c(C(c2cccc(O)c2)c2c(C)n(C)n(-c3ccccc3)c2=O)c(=O)n(-c2ccccc2)n1C	-6	-1.3	4	-6	-4%
S=c1[nH]nc(Cc2noc3ccccc23)n1-c1ccc(Cl)cc1	/	4.9	-8	3	-1%
Cc1cc(C)nc(NS(=O)(=O)c2ccc(NC(=O)CSc3nc(-c4ccccc4)c(C#N)c(=O)[nH]3)cc2)n1	/	3.0	-8	7	-9%
Cc1ccc(C(=O)NCCc2csc(-c3cccnc3)n2)cc1	-36	-2.3	-2	0	71%
O=C(NCC(=O)N(c1cccnc1)C(C(=O)NC1CCCC1)c1ccc(F)cc1)c1ccco1 (stereo unspecified)	/	-3.7	-1	1	-1%
O=C(O)C1CCN(c2ccc(S(=O)(=O)N3CCC(C(=O)O)CC3)cc2[N+](=O)[O-])CC1	/	-0.5	-5	/	/
COC(=O)[C@H](CCSC)NC(=O)c1cccnc1SC	/	-3.4	4	/	-9%
COC(=O)c1c(NC(=O)c2ccccc2)sc2c1CC(C)(C)OC2	-3	-0.8	4	-1	-5%
O=C(Nc1nnc(-c2ccc(Cl)cc2)o1)C1CCCCC1	/	1.3	82	-4	3.3µM*	Arbovirus inh repeat=-4
Cc1ccc(Nc2c3c(nc4ccccc24)CCC3)cc1	/	3.4	97	/	68%
Cn1c2c(c(=O)n(C)c1=O)C(C(F)(F)F)(C(F)(F)F)N=C(c1ccccc1Cl)N2	10	-3.5	?	2	-10%
CCOc1ccc(-c2nnc3sc(-c4c(OC)cccc4OC)nn23)cc1	-4	/	/	-2	/	Arbovirus inh repeat=-4
CCCSc1nn2c(=O)c3ccccc3nc2s1	-38	-1.7	100	-2	?
Cn1ccsc1=NC(=O)c1cc(S(=O)(=O)N2CCOCC2)ccc1Cl	/	3.2	0	/	/
COc1ccc(C(=O)Nc2c(Cl)cc(Cl)cc2C(=O)NCCN2CCOCC2)cc1	-20	-3.1	-16	-1	-10%
Cc1c(N2C(=O)c3ccc(F)cc3C2=O)c(=O)n(-c2ccccc2)n1C	-30	-1.7	-7	2	-10%
CCOCC(=O)N1CCN(c2cccc(Cl)c2)CC1	/	9.4	49	7	0%
Cc1cc(NC(=O)C2CC(=O)N(c3ccccc3Cl)C2)no1 (stereo unspecified)	/	0.2	2	/	/
O=C(N/N=C/c1ccc(C(F)(F)F)cc1)c1ccncc1	/	-0.2	98	/	/
Cc1ccc(S(=O)(=O)NCCC(=O)Nc2ccc(S(=O)(=O)NC(C)C)cc2)cc1	/	0.2	-3	/	/
Cc1nc2cc(C(F)(F)F)ccc2n1CCNc1nc(-c2cc(Cl)c(N)c(Cl)c2)cs1	/	17	5	/	/
CCOc1ccc(NC(=O)C2CCCN(S(=O)(=O)c3ccc4c(c3)CC(C)N4C(C)=O)C2)cc1 (stereo unspecified)	/	1.0	-2	/	/
Cc1ccc2[nH]c3c(c2c1)CN(C(=O)CN1CCN(c2ccccn2)CC1)CC3	-23	-13	9	4	-2%
Other entries follow:
SMILES	YopH PTP inh	RecA intein inh	Mtb betalactam	Arbovirus inh	Mtb H37Rv	others
COc1ccc(COC(=O)c2sc3nc4n(c(=O)c3c2C)CCC4)cc1	/	-6.0	14	/	/
O=C(Nc1ccccc1)NC1CCCc2ccccc21 (stereo unspecified)	/	7.9	-7	-9	9%
Cn1cccc1CC(=O)NNC(=S)NC(=O)c1ccc(F)cc1	/	1.0	39	/	42%
Cc1ccccc1NC(=O)C1CCN(C(=O)NC2CCCCC2)CC1	/	-0.1	-4	/	/
C#CCOCCOCCOCCNc1nc(N2CCN(C(=O)[C@H]([C@@H](C)CC)n3cc([C@@H](N)Cc4ccc(O)cc4)nn3)CC2)nc(N2CCN(C(=O)[C@H](CCCCN)n3cc([C@@H](N)CC(C)C)nn3)CC2)n1	/	-0.6	31	-2	/
CCC(=O)N1CCN(c2ccnc3cc(Cl)ccc23)CC1	/	0.3	11	/	4%
O=C(CSc1nnc(Cc2ccccc2)o1)NCCc1ccccc1	-31	0.7	92	10	?
Cc1ccc(NC(=S)NCC2CCN(C(C)c3ccccc3)C2)cc1C (stereo unspecified)	/	2.8	-11	-4	1%
Cc1ccccc1SCCNC(=O)CCc1ccccc1	/	3.1	-4	-2	-3%
COc1ccc(-n2c(C)nnc2SCC(=O)N2CCOCC2)cc1	/	1.1	-9	/	/
O=C(NNC1=C(C(=O)C(F)(F)F)CCC1)c1ccncc1	/	-0.7	100	18	?
CCC(NC(=O)C1CCC1)c1ccc(C)cc1 (stereo unspecified)	6	-0.5	4	3	7%
Cc1nnc(SCc2nnc(-c3ccccc3Br)o2)n1-c1ccccc1	-24	0.2	0	-4	-7%
Cn1nc(C(F)(F)F)c(C(=O)Nc2ccc(F)cc2F)c1Sc1ccc(C(F)(F)F)cc1	-28	1.8	3	1	-3%
CC1CCC(NC(=O)C2CCC(CNS(=O)(=O)c3cccc4nsnc34)CC2)CC1 (stereo unspecified)	-57	1.3	0	-30	8%
CCOc1ccccc1CNc1nc2ccccc2n1C	/	2.5	-5	/	/
CN(CC(=O)Nc1ccc(N2CCOCC2)cc1)Cc1c(O)ccc2ccccc12	/	-2.6	-5	-2	9%
Cc1c(O)ccc(C(=O)CN2CCN(c3ccccc3)CC2)c1O	/	2.4	0	/	/
COc1ccc(-c2noc(CCC(=O)N(C)c3cccc(C)c3)n2)cc1	10	6.0	-4	-13	3%
CN1CCN(CCNC(=O)Nc2ccc([N+](=O)[O-])cc2)CC1	/	-3.3	32	5	4%
COc1ccc(C(=O)N=c2sc3ccccc3n2C)cc1	/	-1.1	4	-5	3%
